HSD17B inhib: blocks hydroxysteroid 17-beta dehydrogenase activity; Q99714; recombinant HSD17B10, NADH fluorescence kinetic; many of its hits are not listed in these tables; Potency, µM (top dose mostly 57.1 µM), without a hit: at the top dose activity change, negative = inhibition, hits mostly inhibitors; 7.6% of 75,000 active; active = well fitted inhibition curve with a large enough effect; inconclusive = small, poorly fitted or top-dose-only effect; inactive = no such curve, though single readings can be large or run the other way;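 note: the protocol describes HADH2 (HSD17B10) and not the HSD17B4 of the title; nearly all actives have a fitted effect of over 70% in size; most hits overshoot -100% by far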
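Enzyme plus compound, 15 min room temperature; substrate mix added (NAD+ 1 mM, beta-hydroxybutyryl-CoA 90 uM final); plates read kinetically for NADH fluorescence. HADH2 was His-tagged, E. coli-derived, 20 nM.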
An asterisk follows results filed as active; ? = inconclusive; [ ] = dose if it differs, or a comment. % is set by controls: 0 for no effect and ±100 for the full control effect; potency is the fitted concentration of half-maximal effect. Some of the compounds tested, so the mix of outcomes need not match the whole.

SMILES	HSD17B inhib
COc1ccccc1NC(=O)c1cc2n(n1)C(C(F)(F)F)CC(c1ccc3c(c1)OCO3)N2 (stereo not drawn)	-8%
Cc1ccc(-n2ncc3c(NCc4ccccn4)ncnc32)c(C)c1	-29%
CCN(CC)S(=O)(=O)c1ccc(-c2nnc(SCC(=O)N3CCc4ccccc43)o2)cc1	-5%
CC(C)C1=CC2=CCC3[C@@](C)(CCC[C@@]3(C)C(=O)O)C2CC1 (stereo partly drawn)	?
Cn1nc(-c2ccc(Cl)cc2)c2cc(C(=O)N3CCC(N4CCCCC4)CC3)sc21	-1%
COC(=O)c1ccc(CNC(=O)CSc2nnc(COc3ccccc3)n2C)o1	2%
COc1ccc(C)cc1S(=O)(=O)N(CC(N)=O)Cc1ccccc1	5%
CSc1nnc(CNC(=O)c2ccccc2)n1-c1cccc(C)c1	3%
Cc1ccc(C(=O)N(CN2CCCC2=O)c2ccc(F)cc2)cc1	14%
COc1ccc(OC)c(NC(=O)C2CCN(c3cc(-c4ccccc4)nc4ncnn34)CC2)c1	4%
CCOC(=O)c1nc2sc3c(c2c(=O)[nH]1)CCCC3	25µM*
C=CCOc1ccccc1/C=N/O	?
CCOc1ccc(-c2nc(-c3ccc(OC)cc3)no2)cc1OCC	?
CN(C)C(=O)CCc1nc(-c2ccc(C(C)(C)C)cc2)no1	-4%
CCCCC[C@H](CC(=O)NO)C(=O)N[C@@H](C(=O)N1CCC[C@H]1CO)C(C)C	-5%
CC(C)(C)C(=O)Nc1ccccc1C(=O)NCc1ccco1	-7%
O=C(O)C1CCCN1S(=O)(=O)c1ccc(Br)s1 (stereo not drawn) (tested in a mixture with another compound)	8%
CC(=O)N1CCN(c2ccc(NC(=O)c3ccccc3Br)cc2Cl)CC1	9%
CC(CN1CCCCC1)OC(=O)c1cc2ccccc2o1 (stereo not drawn)	1%
Cc1nonc1OCCNC(=O)C12CC3CC(CC(C3)C1)C2	0%
O=C(Nc1ccccc1)Nc1cccc2cccnc12	-12%
COc1ccc2nc(NC(=O)CCc3nc(-c4ccccc4F)no3)sc2c1	-4%
Cc1ccc(S(=O)(=O)Nc2ccc(-c3nnc(SCC#N)n3C)cc2)cc1	-2%
COc1ccc2cc(C(=O)Nc3c(C)n(C)n(-c4ccccc4)c3=O)sc(=O)c2c1OC	9%
O=C(Cc1ccccc1)NC1CCN(S(=O)(=O)c2cccc(F)c2)CC1	4%
CC(=O)Nc1cccc(NC(=O)CSc2nnnn2C)c1	4%
Cc1csc(SCC(=O)Nc2nc(-c3ccccc3)cs2)n1	1%
O=C(Cn1ccc2ccccc2c1=O)NCCC(=O)Nc1ccc2c(c1)OCCO2	1%
COc1cccc2[nH]c3c(N4CCCCC4)ncnc3c12	25µM*
Cc1oc(-c2ccccc2F)nc1CS(=O)(=O)CC(=O)NC1CCCC1	-1%
COCCNC(=O)c1ccc2c(c1)NC(=O)CS2	5%
CCOC(=O)c1ccc(-c2ccc(C(=O)Nc3cccnc3)o2)cc1	?
Brc1ccc(-c2noc(CCc3ccccc3)n2)o1	-9%
COc1cccc(C2C(C#N)=C(N)Oc3cc(C)n(Cc4ccco4)c(=O)c32)c1 (stereo not drawn)	-14%
Cn1c(SCC(=O)Nc2ccc3cn[nH]c3c2)nnc1-c1cccs1	1%
CCCc1cc(=O)[nH]c(SCC(=O)N(C)CC(=O)Nc2ccc(C)cc2)n1	-2%
Cc1cc(C)nc(NC2=NCC(=O)N2c2ccccc2Br)n1	10%
COc1ccc(N2CCN(CCNC(=O)c3cccn4c(=O)c5ccc(Cl)cc5nc34)CC2)cc1	5%
CCn1c(CSc2nc(C)cc(C)n2)nnc1SCC(=O)Nc1nc(-c2ccccc2)cs1	-6%
CCOc1ccc(NC(=O)CN2CCN(CC(=O)c3ccc(OCC)cc3)CC2)cc1	-17%
Cn1c(=O)c(-c2ccc(F)c(F)c2)nc2cncnc21	?
CCCc1c(OCCCOc2ccc(OCC(=O)O)cc2)ccc(C(C)=O)c1O	-20%
Cn1c(=O)c2[nH]c([C@@H]3CC(=O)C[C@H](c4nc5c([nH]4)c(=O)n(C)c(=O)n5C)N3)nc2n(C)c1=O	5%[11.4 µM]
COCCOC(=O)c1c(C)n(C)c2ccc(OC(=O)C3CC3)cc12	4%
COc1ccc(NC(=O)CN(C2CCCCC2)S(C)(=O)=O)cc1OC	0%
CCCn1c(N)c(Sc2ccc(Cl)cc2)c(=O)n(CCC)c1=O	0%
COc1cc(-c2n[nH]c(=O)o2)cc(OC)c1OC	32µM*
CC(=O)COc1ccc2c3c(c(=O)oc2c1C)CCCCC3	13µM*
CCCCC(NC(C)=O)c1nc2ccccc2n1CCCC (stereo not drawn)	2%
CCOC(=O)c1oc2cc(O)ccc2c(=O)c1-c1ccccc1OC	-5%
Cn1nc(-c2ccc(Cl)cc2)c2cc(C(=O)N3CCN(c4ccccn4)CC3)sc21	-8%
COc1ncc2ncc(=O)n(CCc3ccccc3)c2n1	-8%
CCN1CCCC1CNC(=O)CSc1cc(=O)n(CC)c2ccccc12 (stereo not drawn)	-28%
CCCSc1nnc2c(n1)OC(c1cccn1C)N(C(C)=O)c1ccccc1-2 (stereo not drawn)	-2%
CCOc1cc(NS(=O)(=O)CC)c(OCC)cc1NC(=O)c1ccco1	7%
O=C1C2=CC[C@H]3C(=O)N(c4cccc(Oc5ccccc5)c4)C(=O)[C@@H]3[C@@H]2[C@H](O)[C@@H]2O[C@H]12	-15%[11.4 µM]
Cc1cc(C)n2c(=S)[nH]nc2n1	25µM*
O=C(Nc1ccc(Cl)cc1C(=O)Nc1ccncc1)c1ccco1	?
CC(=O)OC1C(OC(C)=O)N(C(C)=O)C(=O)N1C(C)=O (stereo not drawn)	-6%
OC(COc1ccc2ccccc2c1)Cn1ccnc1 (stereo not drawn)	-1%

Carrying on:
SMILES	HSD17B inhib
CCOc1ccc2nc(COC(=O)c3ccco3)c(C(C)=O)[n+]([O-])c2c1	-2%
Oc1cnn(-c2ccccc2)c1	6%
CN(C)CCCO[C@H]1[C@H]([C@H](O)CO)O[C@H]2OC(C)(C)O[C@@H]21	3%
O=C(CSc1nnc(-c2ccccc2Br)o1)N1CCN(C(=O)c2ccco2)CC1	-1%
C[C@H](NC(=O)[C@@H]1C[C@H]1[C@@H](NC(=O)OCc1ccccc1)c1ccccc1)c1ccccc1	4%
Cc1nc(SCn2nnc3ccccc3c2=O)c2c(C)c(C)sc2n1	-3%
CC1(C)c2ccccc2N2CC(=O)NC21/C=C/c1ccco1 (stereo not drawn)	-21%
O=C(c1ccccc1)[C@@H]1O[C@H]1c1ccc(-c2ccccc2)cc1	-6%
O=C(c1ccccc1C(=O)N1CCN(c2ccccc2)CC1)N1CCN(c2ccccc2)CC1	3%
COc1ccc(-c2nnc(SCC(=O)NC(C)c3ccccc3)o2)cc1OC (stereo not drawn)	-3%
Cn1c(SCC2CCCO2)nnc1-c1ccncc1 (stereo not drawn)	7%
C=C(C)[C@H]1CC[C@]2(CO)CC[C@]3(C)[C@@H](CC[C@H]4[C@@]5(C)CC[C@@H](O)C(C)(C)[C@@H]5CC[C@@]43C)[C@H]12	-1%[25.6 µM]
COCCn1c(=O)c(-c2ccc(F)c(F)c2)nc2cncnc21	?
CN(C)C[C@H]1CCC[C@@H](CN(C)C)C1=O	-1%[11.4 µM]
CC(=O)c1cccc(NS(=O)(=O)c2ccc3c(c2)oc(=O)n3C)c1	6%
Cc1onc(-c2ccccc2Cl)c1C(=O)Nc1ccc(S(=O)(=O)N2CCCC2)cc1	-2%
CC(=O)CN1Cc2ccccc2/C1=N\C(=O)Nc1ccccc1	-4%
CCc1nnc(NC(=O)CSc2nc3c(c(=O)n2CC)SC(C)C3)s1 (stereo not drawn)	4%
COc1ccc2[nH]c(C)c(CN3CCC(C)CC3)c(=O)c2c1	32µM*
O=C(O)c1ccc2cc(-c3ccc(O)c(C45CC6CC(CC(C6)C4)C5)c3)ccc2c1	7.9µM*
CCCn1c(SCC(=O)Nc2c(C)cccc2CC)nnc1C(C)C	2%
CCOC(=O)CCCn1nc(C)n2c(cc3sccc32)c1=O	-7%
COc1ccc(NC(=O)C2CCCN(S(=O)(=O)c3cccnc3)C2)cc1 (stereo not drawn)	3%
CC1CC(C)CN(Cc2nc(N)nc(Nc3ccc4ccccc4c3)n2)C1 (stereo not drawn)	-3%
COc1ccc(CCNS(=O)(=O)c2ccc(F)cc2)cc1OC	2%
O=C(O)COc1c(F)c(F)c(C(F)(F)F)c(F)c1F	-23%
COc1cc(NCCCC(C)N)c2ncccc2c1 (stereo not drawn)	7%
O=C1CCCc2c1cc(C(=O)Nc1ccc(Br)cn1)c(=O)n2-c1ccccc1	-9%
COC(=O)C1C(=O)c2c([nH]c(C(=O)OC3CCCCC3)c2C)CC1C (stereo not drawn)	1%
CCCCOC(=O)Nc1ccccc1C(=O)N1CCCC1	0%
CN1CC[n+]2cnc3ccccc3c21	?
COC(=O)Cn1c(CN2CCOCC2)nc2c1c(=O)[nH]c(=O)n2C	10%
COc1ccc(S(=O)(=O)N2CCN(c3cc(-c4ccccc4)nc4ncnn34)CC2)cc1	-15%
CC(=O)c1ccc(OCC(C)C)c(CC(C(N)=O)C(N)=O)c1	4%
COc1ccc(C(=O)Nc2cc(Cl)ccc2Cl)c(OC)n1	-23%
COc1ccccc1-c1coc2cc(O)ccc2c1=O	25µM*

Given bar-delimited: 16 of the compounds above
compound | HSD17B inhib
CCc1nnc(NC(=O)CSc2nc3c(c(=O)n2CC)SC(C)C3)s1 (stereo not drawn) | 4%
COc1ccc2[nH]c(C)c(CN3CCC(C)CC3)c(=O)c2c1 | 32µM*
O=C(O)c1ccc2cc(-c3ccc(O)c(C45CC6CC(CC(C6)C4)C5)c3)ccc2c1 | 7.9µM*
CCCn1c(SCC(=O)Nc2c(C)cccc2CC)nnc1C(C)C | 2%
CCOC(=O)CCCn1nc(C)n2c(cc3sccc32)c1=O | -7%
COc1ccc(NC(=O)C2CCCN(S(=O)(=O)c3cccnc3)C2)cc1 (stereo not drawn) | 3%
CC1CC(C)CN(Cc2nc(N)nc(Nc3ccc4ccccc4c3)n2)C1 (stereo not drawn) | -3%
COc1ccc(CCNS(=O)(=O)c2ccc(F)cc2)cc1OC | 2%
O=C(O)COc1c(F)c(F)c(C(F)(F)F)c(F)c1F | -23%
COc1cc(NCCCC(C)N)c2ncccc2c1 (stereo not drawn) | 7%
O=C1CCCc2c1cc(C(=O)Nc1ccc(Br)cn1)c(=O)n2-c1ccccc1 | -9%
COC(=O)C1C(=O)c2c([nH]c(C(=O)OC3CCCCC3)c2C)CC1C (stereo not drawn) | 1%
CCCCOC(=O)Nc1ccccc1C(=O)N1CCCC1 | 0%
CN1CC[n+]2cnc3ccccc3c21 | ?
COC(=O)Cn1c(CN2CCOCC2)nc2c1c(=O)[nH]c(=O)n2C | 10%
COc1ccc(S(=O)(=O)N2CCN(c3cc(-c4ccccc4)nc4ncnn34)CC2)cc1 | -15%

(cont.)
SMILES	HSD17B inhib
COc1cccc(-c2cc(C(=O)N3CCc4ccccc4C3)no2)c1	-10%
CC(=O)NC(Cc1ccc(F)cc1)C(=O)O (stereo not drawn)	14%
COc1ccc(Cn2nnc3c(=O)[nH]c(C4CCCN(C(=O)c5ccccc5)C4)nc32)cc1 (stereo not drawn)	1%
Nc1cc(=O)[nH]c(SCC(=O)Nc2ccc(Br)cc2)n1	9%
Cc1ccc(C)c(N2CCN(Cc3nnnn3C3CCCCC3)CC2)c1	5%
CCc1ccc(NC(=O)c2cc(-c3ccc(OC)cc3)on2)cc1	25µM*
CCOC(=O)C1C(=O)CC(C)(O)C(C(=O)OCC)C1c1ccc2c(c1)OCO2 (stereo not drawn)	0%
Cc1ccc(CNC(=O)CCCNC(=O)c2ccc(Cl)cc2)n1C	-1%
OC(CN1CCCCC1)Cn1c(C(F)(F)F)nc2ccccc21 (stereo not drawn)	-2%
C[C@@H]1C=C[C@](Cc2ccccc2)(C(=O)O)N1C(=O)c1ccccc1	2%
O=C(COC(=O)c1n[nH]c2ccccc12)Nc1ccc(S(=O)(=O)N2CCCC2)cc1	?
COC(=O)Cn1c(CCS(=O)(=O)c2ccc(C)c(C)c2)nc2ccccc21	8%
Cc1cc(C)nc(SCC(=O)Nc2ccc(S(=O)(=O)Nc3onc(C)c3C)cc2)n1	5%
O=C(C1COc2ccccc2O1)N1CCN(c2ccc(F)cc2)CC1 (stereo not drawn)	-5%
O=C1c2ccccc2C(Nc2ccc(Cl)cn2)N1c1ccccn1 (stereo not drawn)	-4%
COc1ccc(N2CCN(Cc3nc4c(c(=O)n(C)c(=O)n4C)n3Cc3ccccc3C)CC2)cc1	6%
CCc1ccc(NC(=O)C2CC(=O)N=C(N)S2)cc1 (stereo not drawn)	7%
N#CC1=C(N)C(C#N)(C#N)[C@H](c2ccncc2)[C@H]2CC3(CC=C12)OCCO3	35%[activator]
COc1cccc(CCc2ccccc2OCC[C@@H]2C[C@@H](O)CN2C)c1	-11%
COCCN1Cc2cccc(C(=O)Nc3ccc(C)c(C)c3)c2C1=O	7%
CCN(CCCNC(=O)c1c(C)cc(=O)oc1C)c1ccccc1	-6%
CCCn1c(CN2CCCCC2CC)nc2c1c(=O)n(C)c(=O)n2C (stereo not drawn)	4%
CC1CN(C(=O)c2ccc(C(=O)c3ccccc3)cc2)CC(C)O1 (stereo not drawn)	-2%
CCCc1cc(=O)[nH]c(Nc2ccc(OC)c(Cl)c2)n1	-13%
